# Screening data: PubChem BioAssay, National Center for Advancing Translational Sciences (NCATS)
# Sfp inh: blocks B. subtilis Sfp PPTase activity; actives 3.5% (n = 310,000); Potency, µM, for inactives: max response, negative = inhibition, hits mostly inhibitors; Q9F4F7; Biochemical Sfp PPTase activity, qHTS; active means well fitted inhibition curve with a large enough effect; inconclusive means small, poorly fitted or top-dose-only effect, or another doubt; inactive means no such curve, though single readings can be large or run the other way;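 further: the enzyme is Sfp with the accession as filed and its product quenches rhodamine fluorescence; potency means the concentration at half of the fitted maximal effect; 0% = enzyme reaction without inhibitor and -100% = no enzyme wells; top concentration of the series not given in the record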
#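 Fluorescence-quenching assay with 15 nM Sfp, 5 uM rhodamine-CoA and 12.5 uM BHQ-2-labelled ybbR peptide in pH 7.6 Hepes/MgCl2 buffer. Enzyme was pre-incubated with compound for 15 min at room temperature. Rate was taken from the 30-min fluorescence change (525/598 nm).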
# D2 ag: agonists of human D2 dopamine receptor (beta-arrestin); P14416; DiscoveRx PathHunter D2 beta-arrestin, luminescence, 90 min; 100% = 57 uM dopamine signal; activation, % (no concentration beside the values); actives 0.084% (n = 360,000); AID 624465; in the data active = activation above about 40%; inconclusive = about 15% to 40%; inactive = below about 15%; further: compound concentration not given in the record; the text of the record calls up to 30% inactive
# Target sequence (P14416 whole entry, looked up): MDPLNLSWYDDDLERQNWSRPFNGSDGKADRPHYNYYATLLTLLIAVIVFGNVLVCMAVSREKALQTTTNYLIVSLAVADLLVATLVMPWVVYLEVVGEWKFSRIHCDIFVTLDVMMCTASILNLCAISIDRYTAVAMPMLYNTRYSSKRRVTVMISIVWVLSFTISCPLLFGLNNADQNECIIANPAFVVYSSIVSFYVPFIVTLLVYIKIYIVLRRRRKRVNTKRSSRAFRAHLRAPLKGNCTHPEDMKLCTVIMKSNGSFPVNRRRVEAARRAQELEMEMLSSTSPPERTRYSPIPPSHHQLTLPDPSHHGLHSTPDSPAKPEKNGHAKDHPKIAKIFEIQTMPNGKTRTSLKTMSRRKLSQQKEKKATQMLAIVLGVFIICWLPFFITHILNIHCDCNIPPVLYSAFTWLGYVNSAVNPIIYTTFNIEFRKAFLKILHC
#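 Agonist mode: compounds alone added to overnight-plated D2 PathHunter cells for 90 min at 37 C, with 57 uM final dopamine (EC100) defining full response. Beta-arrestin recruitment detected by chemiluminescent reagent, read after 1 h at ambient temperature.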
# gsp ag: activates gsp, the McCune-Albright syndrome mutation; actives 0.13% (n = 340,000); gsp mutant cells, cAMP HTRF, 30 min; control for the full effect not named in the record; AID 624287; Potency, µM (top dose mostly 76.9 µM), for inactives: at the top dose activation (cAMP increase), most hits filed as activators; active = well fitted activation curve with a large enough effect; inconclusive = small, poorly fitted or top-dose-only effect, or another doubt; inactive = no such curve, though single readings can be large or run the other way; cell line not stated here;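 further: phosphodiesterase inhibitor Ro 20-1724 added with compounds to block cAMP breakdown; potency means the concentration at half of the fitted maximal effect; nearly all actives have a fitted effect of over 60% in size; about a fifth of the inactives were tested at one dose only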
#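 Cells stably selected in G418 were plated at 2000/well, grown 16-24 hr, then given compounds in DMSO with the PDE inhibitor […] (300 uM solution added) for 30 min at 37C; cAMP was read by HTRF.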
# Menin-MLL FL inh: menin-MLL binding inhibition, fluorescein peptide; Fluorescence polarization, fluorescein-MLL peptide displacement from menin; FP activity change, % at 61.4 µM; 290,000 tested, under 10 active; inconclusive = falling polarisation curve, or a change in total fluorescence; inactive = total fluorescence flat and polarisation flat or rising; no compound was filed as active; the % refers to the polarisation; negative = inhibition;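 further: % of control where 0% means no effect; inhibitors lower the polarisation; unlabelled MLL peptide was the positive control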
# gsp antag: antagonizes gsp, the McCune-Albright syndrome mutation | Potency, µM (series often up to 76.9 µM), without a hit: at the top dose activity change, negative = inhibition, hits mostly inhibitors | actives 0.4% (n = 340,000) | gsp-mutant cells, cAMP HTRF, 30 min; control for the full effect not named in the record; active = falling curve of any shape with a large fitted effect; inconclusive = falling curve, mostly with a smaller effect; inactive = flat or rising curve; cell line not stated here;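 further: intracellular cAMP measured with PDE inhibitor Ro 20-1724 present during compound exposure; potency means the concentration at half of the fitted maximal effect; on the % scale 0 is the no-effect control and ±100 the full control effect; nearly all actives have a fitted effect of over 65% in size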
#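 HTRF cAMP measurement after 30 min RT detection following 30 min, 37C compound treatment alongside […] (added as 300 uM solution) in G418-selected cells seeded at 2000/well and grown 16–24 h.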
# PINK1 expr mod: PINK1 expression modulation. PINK1 immunofluorescence, high-content cytometry, 24 h. Potency, µM (doses to about 76.6 µM), for inactives: at the highest dose activation (PINK1 increase), actives largely listed as activators. actives 0.2% (n = 410,000). AID 624263; active = well fitted activation curve with a large enough effect; inconclusive = small, poorly fitted or top-dose-only effect; inactive = flat fitted curve, though single readings scatter; cell line not stated here;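 further: potency means the concentration at half of the fitted maximal effect; % of control where 0% means no effect; nearly all actives have a fitted effect of over 65% in size; a mitochondrial uncoupler was the plate control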
#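 Decision-based qHTS: stable cells, 24 h exposure to five compound concentrations, CCCP as control. Fixed cells stained for PINK1 plus nuclear, mitochondrial and cell markers, cytometer read.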
# ClpP mod: qHTS Assay for Activators of ClpP. Potency, µM (top dose mostly 57.5 µM), for the others: at the top dose activity change, negative = active. purified B. subtilis ClpP, FRET peptide cleavage, 20 min. actives 1.9% (n = 340,000). AID 651965, 2013; active = well fitted falling curve with a large enough effect; inconclusive = small, poorly fitted or top-dose-only effect; inactive = no such curve, though single readings can be large or run the other way; further: potency means the concentration at half of the fitted maximal effect; the source files actives as falling curves though it sought activators and does not explain the sign; nearly all actives have a fitted effect of over 65% in size; many hits overshoot -100%
# Target sequence (P80244 whole entry, looked up): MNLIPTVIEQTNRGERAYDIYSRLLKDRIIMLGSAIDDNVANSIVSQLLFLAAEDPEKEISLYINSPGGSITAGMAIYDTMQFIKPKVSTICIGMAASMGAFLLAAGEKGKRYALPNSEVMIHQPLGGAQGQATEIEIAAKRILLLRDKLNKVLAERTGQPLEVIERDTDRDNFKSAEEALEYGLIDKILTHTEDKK
#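 ClpP 10 microg/mL final, pH 8 Tris/KCl buffer with BSA, glycerol, Tween-20; compound pinned in; FRET-FV substrate; RT 20 min; Ex320/Em430; ΔFRET vs ADEP 5.8 microM, DMSO, no enzyme.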
# An asterisk follows results filed as active; ? = inconclusive; . = not tested or not shown; [ ] = dose if it differs, or a comment.
canonical_smiles | Sfp inh | D2 ag | gsp ag | Menin-MLL FL inh | gsp antag | PINK1 expr mod | ClpP mod
O=C(CN1CCN(c2ccccc2)CC1)N1N=CCC1c1ccccc1 (configuration not stated) | 9% | -1.8 | -18% | -1.7 | -11% | 0.1% | -2.5%
COC(=O)[C@]1(CC(C)C)N[C@H](c2ccc(-c3cccc(Cl)c3)cc2)[C@@H]2C(=O)N(C)C(=O)[C@@H]21 | . | -4.7 | . | . | -12% | 0.3% | -21%
CCCCNC(=S)N(C)/N=C/c1ccc(F)cc1 | ? | -1.4 | 0% | -16 | -12% | 7.8% | 1.0%
COc1c(C)cccc1C(=O)Nc1ccc(CN2CCOCC2)cc1 | 6% | 0.1 | -11% | -4.7 | 3% | -5.9%[38.3 µM] | -4.2%
Cc1ccc(/C=N/N2CCN(Cc3ccccc3)CC2)s1 | -3% | -0.8 | -3% | -1.7 | 13% | 5.6% | 1.7%
O=C(Nc1cccc(-c2nc3ccccc3[nH]2)c1)c1ccc(C(=O)Nc2cccc(-c3nc4ccccc4[nH]3)c2)cc1 | -19% | 1.5 | 6%[15.4 µM] | 11 | -14% | 9.1% | -1.2%
COc1ccc(/C=N/NC(=O)c2c(C)nc3ccccn23)cc1[N+](=O)[O-] | 20% | -0.8 | -6%[15.4 µM] | -5.1 | -13% | -0.2% | .
CCCC1=C(C(=O)OCC)C(c2cccs2)n2ncnc2N1 (configuration not stated) | 1% | -4.5 | 4% | 1.6 | 1% | 0.3% | -0.6%
C=CCn1c(SCn2nnc3ccccc3c2=O)nnc1-c1ccc(Br)cc1 | 2% | -1.0 | -12% | -2.4 | ? | 0.3%[38.3 µM] | 0.0%
Cc1ccc(NC(=O)CN2C(=O)NC(C)(c3ccc(Cl)cc3)C2=O)cc1 (configuration not stated) | 3% | -3.4 | 8%[15.4 µM] | 0.3 | -1% | 2.9% | .
COc1ccc(NC(=O)c2cc([N+](=O)[O-])ccc2N2CCCC2)cc1S(N)(=O)=O | . | -3.0 | 22% | . | 0% | -0.9% | 3.3%
Cc1ccc(NS(=O)(=O)c2c(C)[nH]c(C)c2C(=O)N2CCCCC2)c(C)c1 | 10% | -6.2 | 7% | 5.5 | 5% | -0.3% | -1.9%
Cc1ccccc1OCCC(=O)N1CCN(S(=O)(=O)c2ccc(Cl)cc2)CC1 | . | 0.3 | -40%[inhibitor] | . | -16% | 2.1% | -1.3%
Cc1nc(NC(=O)CSc2nnc(C3CC3)n2C)sc1C(=O)N(C)C | 10% | -2.0 | 13% | 0.2 | 3% | -0.1% | 0.4%
COc1ccc(N2CCN(C(=O)c3cccc4nc(C)oc34)CC2)cc1 | -1% | -4.2 | 30%[15.4 µM] | 0.1 | -31% | 2.0% | 0.2%
COc1ccc(C(=O)NC(=S)Nc2ccc3oc(=O)ccc3c2)cc1 | ? | -2.0 | -5% | 2.9 | 8% | ? | -1.4%
Cc1ccc(-n2nnnc2SC(C(=O)c2c[nH]c3ccccc23)c2ccccc2)cc1 (configuration not stated) | 15% | 0.3 | 0% | 0.5 | 4% | 0.0% | -2.2%
CCCC(=O)c1ccc(N2CCN(C(=O)c3ccccc3)CC2)c(F)c1 | 9% | -2.2 | -15% | 0.7 | -32% | -0.7% | -1.0%
CCOC(=O)c1c(C)oc2ccc(O)c(CN(C)C)c12 | 10% | -3.1 | 22% | -0.3 | 21% | -2.6% | ?
COc1cccc(C2C=C(c3cccs3)Nc3ncnn32)c1OC (configuration not stated) | 50µM* | -2.6 | 6% | ? | -6% | -1.0% | -13%
O=C(NCCCc1ccccc1)Nc1cccc(Cl)c1 | 24% | -1.0 | 9% | -2.1 | ? | ? | -0.1%
COc1ccccc1C(=O)NCCC(=O)N1CCCC(C(F)(F)F)C1 (configuration not stated) | . | -2.0 | 29% | . | 10% | -0.6% | 0.1%
O=C(OCC(=O)C12CC3CC(CC(C3)C1)C2)c1ccccc1O | . | 1.6 | -23% | . | 3% | 7.5% | .
CS(=O)(=O)N1CCN(c2ccccc2NC(=O)c2ccc(Cl)cc2)CC1 | 12% | 2.7 | 0% | -1.5 | -15% | 0.6% | 0.9%
CCNCCC(CCC(C)C)c1ccc2c(c1)OCO2 (configuration not stated) | ? | -3.6 | -14% | 2.4 | 9% | 11% | .
CCc1cnc(Nc2nc(C(N)c3ccccc3Cl)cs2)nc1 (configuration not stated) | . | 4.8 | . | . | . | 1.6% | 0.9%
CC1CCCCN1C(=O)CSc1nnc(-c2ccco2)n1CC1CCCO1 (configuration not stated) | 12% | -1.5 | -45%[inhibitor] | -0.8 | 8% | 5.1%[38.3 µM] | -3.5%
CC(C)C[C@@H](CN1CCC[C@@H]1CN1C(=S)NC[C@@H]1Cc1ccc(O)cc1)N1C[C@H](Cc2ccc(O)cc2)N(CC2CCCCC2)C1=S | . | 11 | . | . | . | 0.3% | 1.1%
O=C(NCCN1CCOCC1)c1cc(-c2ccccc2Cl)nc2ccccc12 | 20% | 0.6 | -49%[inhibitor] | 0.4 | 7% | -0.8% | 1.3%
CC(NC(=O)COc1ccccc1-c1ccccc1)c1ccccc1 (configuration not stated) | ? | 0.0 | -22% | 11 | -5% | 4.1% | .
Nn1c(SCCOc2ccc(Cl)cc2)nnc1-c1cccnc1 | 6% | -3.8 | -9%[15.4 µM] | -4.1 | -6% | 3.6% | -3.3%
Cc1cc(C)nc(SCc2nnc(SCC(=O)Nc3ccccc3C)n2Cc2ccco2)n1 | 50µM* | -0.6 | -13% | 4.4 | -9% | 0.4% | -2.3%
CCOc1ccccc1NC(=O)Nc1ccc(Cl)cc1 | ? | -2.4 | 24% | -0.1 | -20% | 21% | -11%
O=C1C=CC(=O)N1c1cccc2cccnc12 | . | 3.3 | 5% | . | 7% | 0.3% | .
Brc1cccc2sc(N3CCN(c4ccccc4)CC3)nc12 | -9% | 4.5 | 2%[15.4 µM] | -2.0 | -21% | 1.4% | .
S=C(NC1CCCCC1)NN1CCOCC1 | -2% | 8.7 | -55%[inhibitor] | -2.1 | 30% | 1.9% | 1.8%
O=C(c1cccc(Br)c1)c1nc2ccccc2[nH]c1=O | . | -5.9 | . | . | . | 0.4% | -9.5%
Cc1ccc(C)c(C2C(=O)c3ccccc3C2=O)c1 | -27% | -2.4 | 0% | -8.1 | -4% | 1.2% | .
CC(O)CNC(=O)c1ccc(-c2nn(C)c(=O)c3ccccc23)cc1 (configuration not stated) | 8% | -1.9 | 9% | 0.3 | 4% | . | -1.5%
Cc1[nH]c2ccccc2c1C(=O)C(=O)NCCCn1ccnc1 | -3% | 0.0 | 14%[15.4 µM] | 2.2 | 4% | 0.5% | 0.5%
O=C(CCS(=O)(=O)c1cccc2nsnc12)N1CCN(C(=O)c2ccco2)CC1 | -14% | -6.7 | 17% | -6.4 | 7% | -1.1% | -1.4%
O=C(O)CCC(=O)Nc1ccccc1C(=O)NCc1ccco1 | -14% | 1.0 | 18% | 0.2 | 0% | 3.0% | -3.2%
CCN(CC)C(=O)CSc1n[nH]c(=S)n1N | 50µM* | 9.0 | 12% | 2.2 | 19% | 1.0% | -2.7%
O=C(COc1ccccc1[N+](=O)[O-])N/N=C/c1ccncc1 | 19% | 0.3 | -1% | 0.5 | -1% | -0.7% | .
C[C@]12C(=O)N(c3ccc(F)cc3)C(=O)N1[C@H]1c3ccccc3OC[C@@H]1[C@H]2c1ccccc1 | . | -1.0 | -53%[inhibitor] | . | -7% | 0.0% | 1.6%
Cc1ccsc1C(=O)Nc1cccc(S(=O)(=O)N(C)C)c1 | 12% | -1.0 | 16% | -1.2 | 9% | -0.1% | -1.9%
Cc1ccccc1C(=O)N1CCC(C(=O)Nc2ccc(S(=O)(=O)N3CCCC3)cc2)CC1 | -26% | -3.7 | 0% | 4.3 | -5% | -1.0% | 0.5%
CC(=O)Nc1ccc(NC(=O)CCC(=O)OCC(=O)c2ccc(F)cc2)cc1 | 26% | -6.2 | 5% | . | 9% | 0.3% | 3.4%
CC(C)[C@H](NC(=O)OCc1ccccc1)C(=O)OCC(=O)NC1(C#N)CCCC1 | 9% | -4.3 | -16% | 3.4 | -9% | 0.8% | 1.1%
Cc1cc2cc3c(cc2nc1SCC(=O)N1CCN(C(=O)c2ccco2)CC1)OCO3 | -15% | -1.7 | -54%[inhibitor] | 5.3 | -6% | -3.8%[38.3 µM] | -5.4%
Cc1cc([N+](=O)[O-])c(=O)[nH]c1C | . | -5.1 | -41%[inhibitor] | . | 2% | -3.3% | -0.7%
CCc1nnc(NC(=O)[C@@H](NC(=O)c2ccc(C(C)(C)C)cc2)C(C)C)s1 | 5% | -0.8 | -4% | 8.0 | -7% | 0.8% | 1.6%
CCN(CC)CCNC(=O)C(C)c1nn(CC)c(=O)c2ccccc12 (configuration not stated) | 20% | -1.0 | -36%[inhibitor] | 2.9 | 15% | -0.3%[38.3 µM] | -5.2%
O=C(NCc1nc2ccccc2[nH]1)C1=C[C@H](c2coc3ccccc3c2=O)C[C@H](OCCCCO)O1 | . | 1.5 | 1% | . | -3% | 0.2% | 1.2%
Cc1cnc(NC(=O)CCCc2nc3ccccc3s2)s1 | 40µM* | 0.3 | -1% | -0.5 | -4% | 7.2% | -0.4%
CCCCN1CC(=O)N2Cc3[nH]c4ccccc4c3C[C@H]2C1=O | -8% | 1.8 | 25% | 0.3 | 6% | -0.3% | -1.5%
COC(=O)c1sc(=S)n(-c2ccccc2OC)c1N | 12% | -0.8 | -6% | 0.1 | -1% | 8.6% | -0.9%
COc1ccc(S(=O)(=O)N(C)C2CCS(=O)(=O)C2)cc1OC (configuration not stated) | 9% | 0.2 | -37%[inhibitor] | -1.9 | 12% | -0.3%[38.3 µM] | 0.0%
CC1(C)CC(=O)C(/C=N/n2cnc3ccccc3c2=O)=C(O)C1 | -6% | -1.5 | 8% | -0.6 | 8% | -1.1% | -1.1%
Cc1cccc(OCC(O)Cn2c(NCc3cccnc3)nc3c2c(=O)[nH]c(=O)n3C)c1 (configuration not stated) | 17% | -2.8 | 1% | 2.3 | 1% | -0.6% | 1.1%
O=C(CCS(=O)(=O)c1ccccc1Cl)NCCC1=CCCCC1 | 14% | 1.1 | -18% | . | 19% | -1.2% | 0.8%
